Source: PubChem
Rce1 inh = blocks yeast Ras-converting enzyme. hit rate 0.27% among 290,000. AID 2563. calls only. yeast membranes, quenched prenylated peptide cleavage fluorescence;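 active = fall in fluorescence gain of 50% or more versus controls, with final raw signal at or below 3038400; inconclusive = same 50% fall but final raw signal above 3038400; inactive = fall in fluorescence gain under 50%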;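 note: plate controls were neutral control wells for no effect and wells lacking membranes for full effect; tested at 10 µM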
Target sequence (Q03530 whole entry, looked up): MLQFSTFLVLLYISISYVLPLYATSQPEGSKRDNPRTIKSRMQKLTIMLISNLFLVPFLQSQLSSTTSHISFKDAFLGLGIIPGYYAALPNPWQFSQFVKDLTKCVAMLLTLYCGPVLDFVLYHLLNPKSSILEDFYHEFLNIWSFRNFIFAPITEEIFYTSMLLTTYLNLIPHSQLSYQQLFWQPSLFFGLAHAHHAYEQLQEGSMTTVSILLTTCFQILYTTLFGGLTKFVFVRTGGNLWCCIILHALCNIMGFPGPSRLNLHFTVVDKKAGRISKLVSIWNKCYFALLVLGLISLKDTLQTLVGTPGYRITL
eIF4H FP inh = inhibitors of RNA binding by human eIF4H; eIF4H fluorescence polarization binding assay; AID 2012; hit rate 0.94% among 290,000; inhibition, % at 35 µM;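 active = 50% or more with normal probe brightness, or confirmed in later tests; inconclusive = above 50% with abnormal brightness, or retests that disagree; inactive = below 50% or failed in later tests; about a fifth of its hits are not listed in these tables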;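 note: calls also rest on retests at 20 µM and on dose response follow-up; 0% = protein and probe with vehicle and 100% = probe without protein; strong numbers were not always called active; many hits fall short of the cut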
UUG fidelity = alters start codon recognition fidelity in yeast; S. cerevisiae UUG-firefly luciferase reporter, luminescence/redox ratio; hit rate 0.13% among 350,000; activity score, % at 18.7 µM; AID 602363;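 active = replicate mean at a twofold rise or more, about +100% in these data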;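 note: firefly luciferase made from a UUG start codon reports start codon fidelity; reporter light over untreated wells divided by growth signal over untreated wells; some hits fall short of that in this replicate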
PABP polyA inh = blocks human PABP binding to poly(A) RNA. P11940. fluorescence polarization. inhibition, % at 35 µM. hit rate 1% among 290,000;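 active = 50% or more with normal probe brightness, or confirmed in later tests; inconclusive = above 50% with abnormal brightness, or retests that disagree; inactive = below 50% or failed in later tests; about a fifth of its hits are not listed in these tables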;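 note: calls also rest on retests at 20 µM and on dose response follow-up; controls were probe without protein and protein plus probe with vehicle; some compounds called inactive have numbers as strong as hits; many hits fall short of the cut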
Target sequence (P11940 whole entry, looked up): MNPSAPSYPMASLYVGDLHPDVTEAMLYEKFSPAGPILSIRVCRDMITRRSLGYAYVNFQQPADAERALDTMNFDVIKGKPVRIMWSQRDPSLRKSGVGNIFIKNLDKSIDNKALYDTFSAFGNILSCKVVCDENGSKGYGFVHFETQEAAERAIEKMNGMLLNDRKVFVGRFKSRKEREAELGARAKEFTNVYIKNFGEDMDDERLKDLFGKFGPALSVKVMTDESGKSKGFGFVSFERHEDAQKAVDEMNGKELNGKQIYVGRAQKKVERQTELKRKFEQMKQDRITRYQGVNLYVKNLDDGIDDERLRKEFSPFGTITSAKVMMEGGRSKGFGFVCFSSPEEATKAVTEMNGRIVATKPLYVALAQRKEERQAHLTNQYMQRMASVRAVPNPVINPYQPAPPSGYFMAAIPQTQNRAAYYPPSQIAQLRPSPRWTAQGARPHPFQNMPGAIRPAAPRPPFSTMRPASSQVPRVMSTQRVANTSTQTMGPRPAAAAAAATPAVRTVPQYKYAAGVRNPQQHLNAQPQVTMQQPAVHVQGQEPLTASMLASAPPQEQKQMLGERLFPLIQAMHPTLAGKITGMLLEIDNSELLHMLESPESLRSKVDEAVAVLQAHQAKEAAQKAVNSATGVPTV
CSC inhib = cancer stem cell inhibition; cancer stem cell-like cells viability, luminescence; inhibition, % at 7.5 µM; hit rate 1.1% among 300,000; AID 2717;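 active = mean at 75% or more and at least half the replicates too; inconclusive = mean and replicates disagree; tested in HMLE shEcad cells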;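 note: 0% = median of negative and 100% = median of positive control wells; the first replicate is given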
MT1-MMP act inh = inhibitors of human MT1-MMP activation. hit rate 0.061% among 360,000. HT1080 RFP-PRO-GFP cells, GFP/RFP ratio fluorescence, overnight; percent of plate control window, DMSO zero. GFP/RFP ratio change, % at 20 µM. P50281;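 active = GFP/RFP ratio change of at least 30% with cell ATP level not reduced by more than half and red fluorescence within 50% of control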; note: strong numbers were not always called active
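Test system: HT1080 RFP-PRO-GFP cells; Benchmarks: DMSO and RFP-L50D-GFP cell wells; Timing: cells overnight before dosing, compound overnight, 37 °C, 5% CO2; Compound: one 20 µM compound dose with 1% DMSO; Read-out: GFP/RFP fluorescence ratio.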
Env fusion inh = HIV envelope-mediated fusion inhibition | HeLa-JRFL Env/CEM21 cell fusion, luciferase | inhibition, % at 12.3 µM | hit rate 1.1% among 360,000 | AID 651610;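 active = mean replicate inhibition score of at least 50 and every replicate individually at or above 50; inconclusive = only one of the two criteria met; inactive = mean below 50 and not all replicates reaching 50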;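 note: 0% = plate neutral controls and 100% = maraviroc near 300 nM; one replicate is shown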
eIF4H FP inh retest = further read-out of eIF4H FP inh, marked with its call; inhibition, %; compound at 20 µM; confirmation average;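 mean of two retest wells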
PABP polyA inh retest = recorded beside PABP polyA inh, whose call it bears; inhibition, %; compound at 20 µM; confirmation repeats;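 mean of two retest wells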
MT1-MMP act inh RFP = further read-out of MT1-MMP act inh, marked with its call; RFP signal change, %; measured here: RFP expression control read;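 0 = vehicle wells; hits needed this value within 50% of zero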
* marks the source's active call; other numbers are inactive results; i = inactive; ? = inconclusive; . = not tested or not shown; & = joins results of further samples; [ ] = dose if it differs, or a comment. Only part of the results is shown; the hit share may differ from the screen's.

SMILES	Rce1 inh	eIF4H FP inh	UUG fidelity	PABP polyA inh	CSC inhib	MT1-MMP act inh	MT1-MMP act inh RFP	Env fusion inh	others
O=C(COc1ccc(S(=O)(=O)N2CCOCC2)cc1Cl)NCc1ccc2c(c1)OCO2	.	.	-20	.	.	0	-5	-19
S=c1nc[nH]c2c1ncn2-c1ccccc1	.	.	3	.	.	3	0	-181
Cc1oc(S(=O)(=O)N2CCCCC2)cc1NC(=O)Nc1ccc(F)cc1	.	3	.	8	-6	4	1	-8
COc1ccccc1N1CCN(/N=C/c2ccc(Cl)c([N+](=O)[O-])c2)CC1	i	-5	-12	2	-1	2	0	-24
N#CC1=C(N)NC(=S)C(C(N)=O)C1c1ccccc1F (stereo not drawn)	i	0	-14	8	6	6	2	-3
Cc1nc(C)c(Oc2cccc(C(F)(F)F)c2)c(=O)[nH]1	i	-2	-17	-1	4	-3	2	11
CC(/C=C/c1ccco1)=N\NC(=O)c1cc(Cl)ccc1O	i	49	.	42	-7	-1	2	2
CN(C)c1ccc(/C=C/c2nc3ccccc3c(=O)n2-c2ccc(C(=O)O)cc2)cc1	i	?	-7	?	2	-49	5	-7
O=C(CCNC(=O)c1ccco1)Nc1ccc(OC(F)(F)F)cc1	i	-3	-18	-2	-6	-2	-1	-18
Cc1ccc(NC2CCCCC2NS(=O)(=O)c2ccccc2)c(C)c1 (stereo not drawn)	i	.	-3	.	-4	-5	-21	5
COc1ccc(/C=N/NC(=S)N[C@H]2CC3CCC2C3)cc1 (stereo partly drawn)	i	-1	-20	-5	37	-1	-4	1
CSc1nccc(-c2c(-c3ccc(Cl)cc3)noc2C)n1	i	-3	-21	15	46	-1	-1	7
CCNC(=O)C1CCCN(C(=O)c2ccc(C(=O)OC)cc2)CC1 (stereo not drawn)	.	.	-12	.	.	3	6	-3
Cc1ccc(C2CC(c3ccc(Br)cc3)=NN2C(=O)CSC2=NN3CCCC(=O)N=C3S2)cc1 (stereo not drawn)	i	.	-7	.	-8	-1	-7	2
O=C(CSc1nnc(-c2ccccn2)o1)Nc1ccccc1C(F)(F)F	i	2	4	3	.	0	3	-16
COc1cccc(N2CCN(C(=O)c3ccc(-c4ccccc4)cc3)CC2)c1	i	24	13	7	16	-1	1	-1
O=C(Nc1ccc(Cl)cc1)c1ccc(OC2CSC2)cc1	i	4	.	-3	4	1	3	-23
CN(C)c1ccc(NC(=S)c2ccccn2)cc1	i	-2	-92	-5	8	8	3	27
CCn1c(SCC(=O)NNC(=O)c2ccccc2)nnc1-c1ccco1	i	1	.	3	.	-1	4	3
CCCCNC(=O)Oc1c(Br)cc2sc(=O)oc2c1Br	.	96*	.	103*	13	.	.	.
O=C1CC(c2cccc(Cl)c2)CC(O)=C1C=Nc1ccccc1 (stereo not drawn)	i	-2	6	-8	4	1	-1	7
COc1ccc(CN2CCNC(=O)C2CC(=O)NC2CC(C)(C)CC(C)(C)C2)cc1OC (stereo not drawn)	i	-10	-6	-2	-8	2	4	15
Cc1ccc(C(=C2C3C=CC2C2C(=O)NC(=O)C32)c2ccc(C)cc2)cc1 (stereo not drawn)	i	-6	9	-2	28	0	-1	.
Cn1cc(S(=O)(=O)NCc2ccc(Cl)cc2)c(=O)n(C)c1=O	i	-3	-9	0	-12	3	5	6
CCOC(=O)c1ccc(NC(=O)c2nc[nH]c2C(=O)N2CCc3ccccc3C2)cc1	i	6	-9	-6	.	7	-2	12

As a short view, some entries already given.
SMILES	Rce1 inh	eIF4H FP inh	UUG fidelity	PABP polyA inh	CSC inhib	MT1-MMP act inh	MT1-MMP act inh RFP	Env fusion inh	others
O=C(COc1ccc(S(=O)(=O)N2CCOCC2)cc1Cl)NCc1ccc2c(c1)OCO2	.	.	-20	.	.	0	-5	-19
S=c1nc[nH]c2c1ncn2-c1ccccc1	.	.	3	.	.	3	0	-181

Next part:
SMILES	Rce1 inh	eIF4H FP inh	UUG fidelity	PABP polyA inh	CSC inhib	MT1-MMP act inh	MT1-MMP act inh RFP	Env fusion inh	others
COc1ccc(N=Nc2ccc(O)c(P(=O)(c3ccccc3)c3ccccc3)c2)cc1	i	-8	5	4	13	6	2	1
O=C(c1cnccn1)N(c1ccccc1)C1(C(=O)NC2CCCCC2)CCCCC1	i	-7	-16	1	7	0	-6	.
C[C@H](CO)N1C[C@H](C)[C@@H](CN(C)C(=O)c2ccc(F)cc2)Oc2cc(Br)ccc2S1(=O)=O	.	.	7&6	.	.	6	6	-27
O=c1[nH][nH]c(-c2ccccc2O)c1C(C[N+](=O)[O-])c1cccc(Cl)c1 (stereo not drawn)	i	0	.	8	-5	1	4	5
CCC(Sc1nc2ccccc2[nH]1)C(=O)Nc1ccc(NC(C)=O)cc1 (stereo not drawn)	i	1	.	-2	15	4	1	-4
CCO[C@H]1OC(C(=O)NCc2ccccc2)=C[C@@H](C(C)(C)C)[C@@H]1CCCO	i	.	22&-2	.	11	9	4	18[16.7 µM]
COCCCn1c(SCc2nnc(-c3ccc(OC)c(OC)c3)o2)nc2ccccc2c1=O	i	-4	10	-10	10	0	-2	.
CCOC(=O)N(C)c1c(CC)nc2c(OCc3ccccc3)cccn12	.	.	-8	.	.	-4	-3	-14
CNC(=O)NC(=O)C(C)Oc1ccccc1F (stereo not drawn)	i	-10	-21	-8	-4	0	3	-20
O=C(Nc1ccccc1)N1CCC(C(=O)N2CCCC(C(F)(F)F)C2)CC1 (stereo not drawn)	i	76	-12	-2	.	0	5	1	eIF4H FP inh retest=-3;PABP polyA inh retest=1
Cc1c(C(=O)O)sc(S(=O)(=O)N2CCN(C(=O)Cc3ccccc3Cl)CC2)c1C(=O)O	.	.	-8	.	-7	-1	7	-5
Cc1cc(-c2n[nH]c(=S)n2Cc2ccco2)n(C)n1	i	-8	-9	9	-27	4	6	-5
COc1cc2c(cc1OC)-c1cc(N3CCCc4ccccc43)nc(=O)n1CC2	i	-11	-5	4	16	-1	0	.
Cc1ccc(S(=O)(=O)NC(=O)Nc2ccccc2F)cc1	.	-8	-16	5	-25	1	6	-4
CC(C)c1nc2n[nH]c(N)c2c2c1CSC(C)(C)C2	i	-6	.	-10	0	-3	0	.
O=C1NC(c2ccccc2)=C(c2nc3ccccc3s2)C(c2ccccc2)N1 (stereo not drawn)	i	-8	-23	-6	.	-11	-11	.
COc1cc(OC)c(C(=O)OCC(=O)NCCC2=CCCCC2)cc1OC	i	.	-4	.	-12	1	0	-6
CC(=O)Nc1ccc(S(=O)(=O)N(C)CC(=O)Nc2ccccc2N2CCOCC2)cc1	i	3	-9	-9	-13	-4	2	.
O=C(Cn1cc(C(F)(F)F)cc(Cl)c1=O)NCCc1ccccc1	i	4	-15	24	-6	4	7	-10
Cc1cccc(C(=O)NC2CCN(CC(=O)Nc3cccc(Cl)c3)CC2)c1	.	.	-12	.	.	1	-2	3
COc1ccc(S(=O)(=O)N(C)CC(=O)NCCC2=CCCCC2)cc1C	i	-9	-7	2	-11	-2	-7	-12
Cc1c(NS(=O)(=O)c2ccc(Cl)c(C(=O)OCC(=O)NCc3ccco3)c2)c(=O)n(-c2ccccc2)n1C	i	-10	-2	-6	17	2	5	2
COc1ccc(C(OCC(O)CNCCc2ccc(S(N)(=O)=O)cc2)c2ccc(OC)cc2)cc1 (stereo not drawn)	i	-4	4	8	2	-1	-5	-9
CN(C)c1ccc(P(=O)(Nc2cccc(C(F)(F)F)c2)N2CCOCC2)c(NC(=O)c2cccs2)c1 (stereo not drawn)	.	4	-11	-5	16	-14	-13	-54
CCCCN(CC(=O)Nc1c(C)cccc1CC)C(=O)SCC	i	7	.	-5	-6	2	-3	.

Overlap with the part before: 4 compounds, then new ones.
SMILES	Rce1 inh	eIF4H FP inh	UUG fidelity	PABP polyA inh	CSC inhib	MT1-MMP act inh	MT1-MMP act inh RFP	Env fusion inh	others
Cc1c(NS(=O)(=O)c2ccc(Cl)c(C(=O)OCC(=O)NCc3ccco3)c2)c(=O)n(-c2ccccc2)n1C	i	-10	-2	-6	17	2	5	2
COc1ccc(C(OCC(O)CNCCc2ccc(S(N)(=O)=O)cc2)c2ccc(OC)cc2)cc1 (stereo not drawn)	i	-4	4	8	2	-1	-5	-9
CN(C)c1ccc(P(=O)(Nc2cccc(C(F)(F)F)c2)N2CCOCC2)c(NC(=O)c2cccs2)c1 (stereo not drawn)	.	4	-11	-5	16	-14	-13	-54
CCCCN(CC(=O)Nc1c(C)cccc1CC)C(=O)SCC	i	7	.	-5	-6	2	-3	.
CNC(=O)N1c2ccccc2C=Cc2ccccc21	i	-8	-9	1	-5	4	4	8
CC1=C(C(N)=O)C(c2ccccc2)n2nc(-c3cccc(C)c3)nc2N1 (stereo not drawn)	i	2	-10	-4	9	1	2	17
Cc1ccc(C2C(C(=O)O)c3ccccc3C(=O)N2C)c(C)c1 (stereo not drawn)	i	2	-16	-1	-8	-4	6	.
CCSc1nc(=O)n(-c2ccccc2)c(C)c1C(C)=S	i	-4	-14	2	0	1	5	-17
O=C1C(Cc2ccc(O)cc2)NC(=S)N1Cc1ccccc1 (stereo not drawn)	i	-9	-21	-8	10	-4	-4	27
O=C(N/N=C/c1ccc(O)c(O)c1)c1ccc(CSc2cccc3cccnc23)cc1	i	1	-8	5	38	-13	-9	-59
CSc1nnc(Cn2c(=O)sc3ccccc32)n1-c1ccccc1	i	2	-10	5	-8	5	0	-35
CCCN1CCN(C(=O)c2nn(-c3ccc(OC)cc3)c(=O)c3c2c2ccccc2n3C)CC1	i	-1	.	-5	-18	1	0	-15
CC(C)(C)C1CCC(OCC(O)CN2CCCC2)CC1 (stereo not drawn)	.	-6	-10	0	59	1	3	15
CN(CC(=O)Nc1ccc(F)cc1)c1ccc(S(=O)(=O)N2CCCC2)cn1	i	5	-6	-6	2	0	1	-17

Two records drawn at random from the list so far, as already listed:
SMILES	Rce1 inh	eIF4H FP inh	UUG fidelity	PABP polyA inh	CSC inhib	MT1-MMP act inh	MT1-MMP act inh RFP	Env fusion inh	others
CNC(=O)N1c2ccccc2C=Cc2ccccc21	i	-8	-9	1	-5	4	4	8
CC1=C(C(N)=O)C(c2ccccc2)n2nc(-c3cccc(C)c3)nc2N1 (stereo not drawn)	i	2	-10	-4	9	1	2	17
